Assay outcomes: PubChem BioAssay, Fisher Drug Discovery Resource Center
NPYLR7 agonist – activates Aedes aegypti NPYLR7 receptor; HEK293T NPYLR7/Galpha15, GCaMP6s calcium fluorescence; activation, % at 10 µM; actives 0.15% (n = 270,000); in the data active means activation above about 40%;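 further: 0% = vehicle and 100% = reference agonist at the receptor; some compounds past the cut are filed as inactive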
NPYLR7 agonist max-min – recorded beside NPYLR7 agonist, whose call it bears; activation, %; measured here: Max-Min RFU normalised activation; some inactives read as strong as hits;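 span of the calcium signal over five minutes; 0% = vehicle and 100% = native peptide agonist; compound fluorescence can raise it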
The depositor's hits bear a star; & = joins results of further samples.

(1) CCC(=O)Nc1nnc(SCc2cc(=O)c(OC(=O)c3cccs3)co2)s1
- NPYLR7 agonist: 4
- NPYLR7 agonist max-min: -2
(2) O=C(Nc1ccnn1C1CCN(C(=O)c2cscn2)CC1)c1ccc2c(c1)OCO2
- NPYLR7 agonist: 12&8
- NPYLR7 agonist max-min: 7&6
(3) Cc1cccc(CN2CCCC3(CCN(CC4CC4)C3)C2=O)c1 (stereo not drawn)
- NPYLR7 agonist: 0
- NPYLR7 agonist max-min: -5
(4) Cn1cccc1C(=O)NNS(=O)(=O)c1cc(C(=O)O)ccc1F
- NPYLR7 agonist: 1
- NPYLR7 agonist max-min: 27
(5) CCC(C)N(Cc1ccc(OC)c(OS(=O)(=O)c2ccc(F)cc2)c1)C(=O)c1ccccc1OC (stereo not drawn)
- NPYLR7 agonist: -3
- NPYLR7 agonist max-min: 4
(6) CN(c1ccccc1)S(=O)(=O)c1ccc(C(=O)Nc2cccc(N3CCCC3=O)c2)cc1
- NPYLR7 agonist: 5
- NPYLR7 agonist max-min: 9
(7) CCc1cc(C(=O)O)sc1C
- NPYLR7 agonist: 4
- NPYLR7 agonist max-min: 5
(8) Cc1nc(NCCNS(=O)(=O)Cc2ccccc2)cc(-n2cccn2)n1
- NPYLR7 agonist: -8
- NPYLR7 agonist max-min: -12
(9) Cc1ccc2ncc(CCNC(=O)c3ccc(F)cc3F)n2c1
- NPYLR7 agonist: 3
- NPYLR7 agonist max-min: 1
(10) O=C1CC(=O)CC2(CCCCC2)C1
- NPYLR7 agonist: 1
- NPYLR7 agonist max-min: -2

(11) Cc1c(C(=O)NCCc2ccccn2)cc(-c2ccc(Cl)cc2)n1-c1cccc(F)c1
- NPYLR7 agonist: -2
- NPYLR7 agonist max-min: 10
(12) COc1ccc(/C=C2\SC(=Nc3ccccc3Cl)NC2=O)c2ccccc12
- NPYLR7 agonist: 3
- NPYLR7 agonist max-min: -4
(13) CCn1c(C2CCN(C(=O)c3cc(-c4ccccc4)on3)CC2)nn(C)c1=O
- NPYLR7 agonist: 12
- NPYLR7 agonist max-min: 8
(14) Cc1cccn2c(=O)nc(SCC(=O)N3CCCC3)nc12
- NPYLR7 agonist: 10
- NPYLR7 agonist max-min: 10
(15) CCCn1nnnc1CNC(C)(CO)C1CCCCC1 (stereo not drawn)
- NPYLR7 agonist: 4
- NPYLR7 agonist max-min: 1
(16) CCCN(C)c1nccn2c(=O)n(CC(=O)NCc3ccc(C)cc3)nc12
- NPYLR7 agonist: -3
- NPYLR7 agonist max-min: -1
(17) Cc1ccc(-n2c(SCC(=O)N(C)CCC#N)nc3ccccc3c2=O)nc1
- NPYLR7 agonist: 10
- NPYLR7 agonist max-min: 8
(18) CCN(CC)C(=O)Oc1ccc2c(ccn2Cc2ccccc2F)c1NC(=O)c1cc(F)cc(C(F)(F)F)c1
- NPYLR7 agonist: -1
- NPYLR7 agonist max-min: 4
(19) Cc1cccc(Oc2ccnc(N3CCC[C@H]3C(=O)NCc3ccc(F)cc3)n2)c1
- NPYLR7 agonist: -2
- NPYLR7 agonist max-min: -3
(20) Cc1nc(CC(=O)NNC(=S)NC2CC3CCC2C3)cs1 (stereo not drawn)
- NPYLR7 agonist: 1
- NPYLR7 agonist max-min: 0

(21) CC(C)CN(Cc1cccc(OS(=O)(=O)c2cccc(C(F)(F)F)c2)c1)C(=O)NC12CC3CC(CC(C3)C1)C2
- NPYLR7 agonist: 5
- NPYLR7 agonist max-min: 8
(22) CC(=O)c1ccc(S(=O)(=O)N2CCN(C(=O)Oc3ccccc3)CC2)cc1
- NPYLR7 agonist: 3
- NPYLR7 agonist max-min: 3
(23) COc1ccc(N2C(=O)C(c3c(C(C)C)[nH]n(-c4ccc(Cl)cc4)c3=O)=C(N3CCN(C)CC3)C2=O)cc1
- NPYLR7 agonist: -7
- NPYLR7 agonist max-min: -2
(24) Cc1noc(-c2cccs2)c1C(=O)N(C)CCc1ccccn1
- NPYLR7 agonist: 9
- NPYLR7 agonist max-min: 13
(25) Cc1ccc(NC(=O)N2CCC3(CC2)C(=O)N(CC(=O)N2CCCC2)CN3c2ccccc2)cc1Cl
- NPYLR7 agonist: -3
- NPYLR7 agonist max-min: 8
(26) CSc1ncc(CN2CCC(CCC(=O)NCc3cccnc3)CC2)cn1
- NPYLR7 agonist: 8
- NPYLR7 agonist max-min: 9
(27) Cc1cc(C)cc(-c2nc3cc(C)ccn3c2NC(=O)CC(C)(C)C)c1
- NPYLR7 agonist: -8
- NPYLR7 agonist max-min: -3
(28) Cc1nnsc1CN(C)CC(O)CO (stereo not drawn)
- NPYLR7 agonist: -4&5
- NPYLR7 agonist max-min: -5&5
(29) Cc1cc(Cl)ccc1NS(=O)(=O)c1ccc([N+](=O)[O-])cc1
- NPYLR7 agonist: -5
- NPYLR7 agonist max-min: -12
(30) Cc1ccccc1CNc1ccc(S(N)(=O)=O)c(C(F)(F)F)c1
- NPYLR7 agonist: 3
- NPYLR7 agonist max-min: 0

(31) CC(=O)c1cn(CCOc2ccc(Cl)cc2)c(=O)n(C)c1=O
- NPYLR7 agonist: 6
- NPYLR7 agonist max-min: 2
(32) O=C(CCC1CCCN(C2Cc3ccccc3C2)C1)Nc1ccccc1F (stereo not drawn)
- NPYLR7 agonist: 5
- NPYLR7 agonist max-min: 0
(33) COc1ccc(-n2ccnc(SCC(=O)c3ccc(C)cc3C)c2=O)cc1
- NPYLR7 agonist: 2
- NPYLR7 agonist max-min: -4
(34) CO[C@H]1CN(C(=O)N2CCOCC2)[C@H]2Cc3c(oc4ccccc34)[C@@H]1C2
- NPYLR7 agonist: 22
- NPYLR7 agonist max-min: 31
(35) CC(C)c1nn(CC(=O)NC2CCCC2)c(=O)c2c1cnn2-c1ccccc1
- NPYLR7 agonist: 10
- NPYLR7 agonist max-min: 6
(36) N#Cc1ccccc1COC(=O)c1ccc(CC2CC(=O)NC2=O)cc1 (stereo not drawn)
- NPYLR7 agonist: -5
- NPYLR7 agonist max-min: -4
(37) Cc1ccc2[nH]c3c(c2c1)CCc1nonc1-3
- NPYLR7 agonist: 5
- NPYLR7 agonist max-min: 4
(38) CNC(=O)c1cn(C2CCCCC2)cc(C(=O)NCC2CC3C=CC2C32CC2)c1=O (stereo not drawn)
- NPYLR7 agonist: 4
- NPYLR7 agonist max-min: 4
(39) CCC(C(=O)OC)n1cnc2c(nnn2Cc2ccccc2F)c1=O (stereo not drawn)
- NPYLR7 agonist: 5
- NPYLR7 agonist max-min: 7
(40) O[C@@H]1CN(c2ncnc3nc[nH]c23)CC[C@H]1N1CCOCC1
- NPYLR7 agonist: -3
- NPYLR7 agonist max-min: -4

(41) Cc1nc2nc3ccn(CCCN4CCOCC4)c(=O)c3c(-c3ccccc3)n2n1
- NPYLR7 agonist: 3
- NPYLR7 agonist max-min: 7
(42) O=C(NCc1ccsc1)NC1CCN(c2ccccc2)C1 (stereo not drawn)
- NPYLR7 agonist: -21
- NPYLR7 agonist max-min: -21
(43) O=c1[nH]c(=S)n(-c2cccc3ccccc23)c(O)c1C=C1C=Nc2ccccc21
- NPYLR7 agonist: -8
- NPYLR7 agonist max-min: -16
(44) CO[C@H]1CN(C(=O)c2cc3ccccc3[nH]2)CC[C@H]1N
- NPYLR7 agonist: 9
- NPYLR7 agonist max-min: 5
(45) CC(C)Oc1nc(-c2ccc(C(F)(F)F)cc2)n(-c2ccc(NC(=O)C3CC3)cc2)n1
- NPYLR7 agonist: -10
- NPYLR7 agonist max-min: -2
(46) CCS(=O)(=O)Oc1ccc(CN(CC(C)C)S(=O)(=O)c2c(C)cc(C)cc2C)cc1
- NPYLR7 agonist: 14
- NPYLR7 agonist max-min: 19
(47) CS(=O)(=O)c1ccccc1C(=O)N(CCCN1CCOCC1)c1nc2c(F)cc(F)cc2s1
- NPYLR7 agonist: 3
- NPYLR7 agonist max-min: -5
(48) CCNC(=O)N(Cc1c(-c2ccccc2)noc1N(CC)CC)C1CC1
- NPYLR7 agonist: 4
- NPYLR7 agonist max-min: 13
(49) O=C(c1ccc(C(F)(F)F)cc1)N1CCCC(N2CCN(CCOc3ccccc3)CC2)C1 (stereo not drawn)
- NPYLR7 agonist: 12
- NPYLR7 agonist max-min: 19
(50) COc1ccc(S(=O)(=O)N2CCc3ccccc3C2)cc1N1CCN(C(=O)c2cc(C)on2)CC1
- NPYLR7 agonist: 12
- NPYLR7 agonist max-min: 26

Numbers 41 to 43 from above:
(41) Cc1nc2nc3ccn(CCCN4CCOCC4)c(=O)c3c(-c3ccccc3)n2n1
- NPYLR7 agonist: 3
- NPYLR7 agonist max-min: 7
(42) O=C(NCc1ccsc1)NC1CCN(c2ccccc2)C1 (stereo not drawn)
- NPYLR7 agonist: -21
- NPYLR7 agonist max-min: -21
(43) O=c1[nH]c(=S)n(-c2cccc3ccccc23)c(O)c1C=C1C=Nc2ccccc21
- NPYLR7 agonist: -8
- NPYLR7 agonist max-min: -16

Next part:
(51) CC1(C)CC2(C)OC(=O)C(Cc3cnc[nH]3)N2C(=S)N1 (stereo not drawn)
- NPYLR7 agonist: 17
- NPYLR7 agonist max-min: 39
(52) O=C(O)c1csc(CSc2nnc(Cc3ccccc3)n2-c2cccc(C(F)(F)F)c2)n1
- NPYLR7 agonist: 55*
- NPYLR7 agonist max-min: 52*
(53) CN(Cn1cc(Cl)cn1)C1CCN(C(=O)OC(C)(C)C)CC1
- NPYLR7 agonist: 24
- NPYLR7 agonist max-min: 20
(54) CCOc1cc2c(cc1NC(=O)c1cc(C(=O)OC)cc([N+](=O)[O-])c1)OC(C)C2 (stereo not drawn)
- NPYLR7 agonist: 2
- NPYLR7 agonist max-min: 1
(55) N#CCOc1ccc(NC(=O)Cc2ccc(Cl)cc2)cc1
- NPYLR7 agonist: 1
- NPYLR7 agonist max-min: 1
(56) Cc1ccc(F)cc1NC(=O)c1cc2cc(Cl)ccc2oc1=O
- NPYLR7 agonist: -5
- NPYLR7 agonist max-min: -11
(57) CC(=O)N(c1ccc(C)cc1)c1nc(CN2CCN(c3ccc(C#N)cn3)CC2)cs1
- NPYLR7 agonist: -1
- NPYLR7 agonist max-min: -3
(58) O=C(NCCn1ncc2c(=O)n(Cc3cccc(F)c3)cnc21)c1ccco1
- NPYLR7 agonist: -4
- NPYLR7 agonist max-min: -9
(59) CC1CCCN(c2cc(C(=O)NCC3CCCO3)c3ccccc3n2)C1 (stereo not drawn)
- NPYLR7 agonist: 20
- NPYLR7 agonist max-min: 14
(60) Cc1cccc(S(=O)(=O)NC(=O)C2(C)CCN2C(=O)Cc2ccc(-c3ccccc3)cc2)c1 (stereo not drawn)
- NPYLR7 agonist: 2
- NPYLR7 agonist max-min: 2

(61) COc1ccc(C2Sc3ccccc3N(CCN(C)C)C(=O)C2OC(C)=O)cc1 (stereo not drawn)
- NPYLR7 agonist: -1
- NPYLR7 agonist max-min: -10
(62) Cc1cccc(OCCN(C)C(=O)/C=C/c2ccc3c(c2)OCO3)c1
- NPYLR7 agonist: -1
- NPYLR7 agonist max-min: 0
(63) Cc1onc(-c2ccccc2Cl)c1C(=O)N1CCC(C(N)=O)CC1
- NPYLR7 agonist: 1
- NPYLR7 agonist max-min: -1
(64) COc1cccc(C(=O)Nc2cc(C)ccc2NC(=O)c2ccccc2C)c1OC
- NPYLR7 agonist: 16
- NPYLR7 agonist max-min: 1

7 entries from above, tab-delimited:
entry	SMILES	NPYLR7 agonist	NPYLR7 agonist max-min
57	CC(=O)N(c1ccc(C)cc1)c1nc(CN2CCN(c3ccc(C#N)cn3)CC2)cs1	-1	-3
16	CCCN(C)c1nccn2c(=O)n(CC(=O)NCc3ccc(C)cc3)nc12	-3	-1
61	COc1ccc(C2Sc3ccccc3N(CCN(C)C)C(=O)C2OC(C)=O)cc1 (stereo not drawn)	-1	-10
15	CCCn1nnnc1CNC(C)(CO)C1CCCCC1 (stereo not drawn)	4	1
21	CC(C)CN(Cc1cccc(OS(=O)(=O)c2cccc(C(F)(F)F)c2)c1)C(=O)NC12CC3CC(CC(C3)C1)C2	5	8
36	N#Cc1ccccc1COC(=O)c1ccc(CC2CC(=O)NC2=O)cc1 (stereo not drawn)	-5	-4
52	O=C(O)c1csc(CSc2nnc(Cc3ccccc3)n2-c2cccc(C(F)(F)F)c2)n1	55*	52*

A portion of the library; count on the stated rates, not on these rows.
